Anaer choline gr = growth inhibitors of anaerobic choline-fed gram-negatives, minimal medium, absorbance | Gram-negative bacterium anaerobic choline minimal medium; stronger effect = lower value; many inactives read as strong as hits in the columns shown | calls only | 55,000 tested, 0.2% active | AID 1963822, 2024;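 active = growth z-score on choline under -2 at 7 or 20 h with little or no fall on glycerol, limits in tiers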;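 note: stock transfer was 300 nL into about 50 µL; the organism is E. coli; final concentration not given here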
Anaer choline gr early = recorded beside Anaer choline gr, whose call it bears; z-score; measured here: choline growth z-score, timepoint 1;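 score of optical density at 7 h as mean of two plates; lower means less growth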
* hit, by the source's call; i = inactive; & = joins results of further samples.

| smiles | Anaer choline gr | Anaer choline gr early |
| --- | --- | --- |
| Cc1ccc(-c2noc(Cc3nc(-c4ccc(C)c(C)c4)cs3)n2)cc1 | i | 1.2 |
| Cc1ccc(-n2c(N3CCCC(C(=O)O)C3)nc3ccsc3c2=O)cc1 (stereo not given) | i | -1.5 |
| CN1CCN(C(=O)CN2c3ccc(Br)cc3-c3ccccc3S2(=O)=O)CC1 | i | 0.22 |
| CCc1ccc(NC(=O)Nc2ccc(CCc3nc4ccccc4n3C)cc2)cc1 | i | -1.4 |
| O=C1CC(c2cccc(Cl)c2)c2c(-c3ccccc3)nn(-c3ccccc3)c2N1 (stereo not given) | i | -0.36 |
| CN(CCc1noc(-c2ccc(C(=O)N3CCCC3)cc2)n1)C(=O)Nc1ccc(Br)cc1 | i | 0.7 |
| Nc1c(CC(=O)O)cccc1C(=O)c1ccc(Br)cc1 | i | 0.43 |
| CC(C)CNS(=O)(=O)c1cc(-c2nc(CC(C)C)cs2)cs1 | i | 1.8 |
| CCN(CC)S(=O)(=O)c1cc(-c2nc(C)cs2)n(CC(=O)N2CCCCC2)c1 | i | -1.3 |
| O=C(Cn1c(=O)n(-c2ccc(CC(=O)NC3CC3)cc2)c(=O)c2ccccc21)NCc1ccc(Cl)cc1 | i | 1.8 |
| CCc1ccc(-c2nc(-c3ccncc3)no2)cc1 | i | 1.1 |
| Cc1ccc(-c2ccc(OCCNC(=O)C3c4ccccc4Oc4ccccc43)nn2)cc1 | i | -0.57 |
| O=C(CCN(Cc1cccc(Cl)c1)C(=O)c1ccc(F)c(F)c1)N1CCNCC1 | i | -0.66 |
| O=S(=O)(c1ccc(F)c(F)c1)N1CCC(c2noc(-c3cccc(F)c3)n2)CC1 | i | 0.33 |
| COc1ccc(NS(=O)(=O)c2c(C)nn(-c3ccc(-c4ccc(C)cc4)nn3)c2C)cc1 | i | -0.1 |
| Cc1ccc(C(=O)N2CCC(c3nc4ccccc4o3)CC2)cc1 | i | 0.22 |
| O=C(c1ccc(N2C(=O)CCS2(=O)=O)cc1)N1CCCCC1 | i | -1.7 |
| Cc1nnc(-c2c(C)[nH]c(C)c2S(=O)(=O)NC2CCCCC2)o1 | i | 0.61 |
| CCCc1nnc2n1NC(c1ccc(C)cc1)C(C(=O)Nc1cc(C)ccc1C)S2 (stereo not given) | i | 0.32 |
| CCCCOc1cccc(C(=O)NCc2csc(-c3ccc(OC)cc3)n2)c1 | i | 1.7 |
| O=C(CSc1ccc2nnc(-c3cccc(F)c3)n2n1)NCc1ccccc1 | i | -0.12 |
| Fc1ccc(C(c2ccc(F)cc2)N2CCN(C/C=C/c3ccccc3)CC2)cc1 | i | 0.56&1.2&-0.02&0.5&1.6 |
| CCn1ccnc(NCC(C)C)c1=O | i | 0.18 |
| Cc1nnc(N2CCC(C(=O)N3CCN(c4ccccn4)CC3)CC2)c2nn(-c3ccccc3)c(C)c12 | i | -0.62 |
| O=C(Cn1ncc2c(N3CCOCC3)ncnc21)N1CCC2(CC1)OCCO2 | i | 0.07 |
| O=C(c1cc(F)cc(F)c1)N1CCC(c2nc3c(nnn3Cc3ccccc3F)c(=O)[nH]2)CC1 | i | 0.61 |
| COc1ccc(NC(=O)CSc2nc3ccccc3n3c(C)nnc23)cc1 | i | 0.65 |
| CC(=O)N1CCN(c2ccc(Nc3c4c(nc5nc(-c6ccccc6)nn35)CCCC4)cc2Cl)CC1 | i | -0.45 |
| CCCCCCCC/C=C\CCCCCCCC(=O)N[C@@H](CO)C(=O)O | i | -2.6 |
| Cc1ccc2c(c1)C(Cc1ccc(C(C)C)cc1)C(=O)N2 (stereo not given) | i | -0.99 |
| CNC(=O)c1c(NC(=O)c2ccc(S(=O)(=O)N(C)Cc3ccccc3)cc2)sc2c1CCC2 | i | -1.4 |
| CCCOc1c(OC)cccc1C1CC(=O)Nc2c1c(C)nn2-c1ccc2nncn2n1 (stereo not given) | i | 1.1 |
| CCC(C)(C)NS(=O)(=O)c1ccc(-c2nc(C(C)C)cs2)s1 | i | 0.5 |
| CC(C)Cn1c(=O)c2sccc2n2c(=O)[nH]nc12 | i | 1.3 |
| Cc1c(CC2C(=O)N(C)c3ccccc32)oc2ccc(F)cc12 (stereo not given) | i | 0.63 |
| CCN(CC)c1ncnc2c1cnn2-c1cc(C)ccc1C | i | 0.24 |
| CNC(=O)c1ccc(-c2nc(CN3CCN(C(=O)Nc4cccc(OC)c4)CC3)c(C)o2)cc1 | i | 0.04 |
| O=C(CCc1nc2sc3c(c2c(=O)[nH]1)CCCC3)N1CCN(c2cccc(Cl)c2)CC1 | i | 0.56 |
| Cc1cc(OCc2nc(C)c(C(=O)NC3CCCC3)s2)ccc1Cl | i | -0.29 |
| CCNc1cc(C)nc(N2CCN(C(=O)c3cccc(C)c3)CC2)n1 | i | -1.2 |

Reformatted: results already given
Cc1c(CC2C(=O)N(C)c3ccccc32)oc2ccc(F)cc12 (stereo not given)
  Anaer choline gr: i
  Anaer choline gr early: 0.63
Cc1nnc(N2CCC(C(=O)N3CCN(c4ccccn4)CC3)CC2)c2nn(-c3ccccc3)c(C)c12
  Anaer choline gr: i
  Anaer choline gr early: -0.62
Cc1ccc2c(c1)C(Cc1ccc(C(C)C)cc1)C(=O)N2 (stereo not given)
  Anaer choline gr: i
  Anaer choline gr early: -0.99

Full records from above. Values in the order: Anaer choline gr	Anaer choline gr early
`Cc1nnc(N2CCC(C(=O)N3CCN(c4ccccn4)CC3)CC2)c2nn(-c3ccccc3)c(C)c12` in the list: i	-0.62
`O=C(Cn1ncc2c(N3CCOCC3)ncnc21)N1CCC2(CC1)OCCO2` in the list: i	0.07
`CCN(CC)c1ncnc2c1cnn2-c1cc(C)ccc1C` in the list: i	0.24
`Fc1ccc(C(c2ccc(F)cc2)N2CCN(C/C=C/c3ccccc3)CC2)cc1` in the list: i	0.56&1.2&-0.02&0.5&1.6

Additional results:
| smiles | Anaer choline gr | Anaer choline gr early |
| --- | --- | --- |
| O=C(CN1C(=O)CCSc2ccccc21)NC1CC1 | i | 0.45 |
| Cc1ccc2c(C)nc(Nc3nc(C(C)C)cc(=O)[nH]3)nc2c1 | i | -1.6 |
| Cc1nn(-c2ccccc2)c2sc(-c3noc(CNS(=O)(=O)c4ccccc4)n3)cc12 | i | 0.96 |
| O=C(Cc1ccc(NC(=O)N2CCCCc3ccccc32)cc1)NCc1cccnc1 | i | -0.96 |
| C[C@]12C=CC(=O)C=C1CC[C@@H]1[C@@H]2C(=O)C[C@@]2(C)[C@H]1CC[C@]2(O)C(=O)CO | i | 0.82&0.06 |
| COc1ccc(COc2ccc(=O)n(-c3ccc(C(=O)Nc4cc(F)ccc4F)cc3)n2)cc1 | i | -0.74 |
| Cc1ccc(-c2ccc(C(=O)NC3CCCc4ccccc43)cn2)cc1 (stereo not given) | i | 0.85 |
| O=C(Nc1ccc2c(c1)OCCO2)N1CCC(c2nc(-c3ccccc3)no2)CC1 | i | 1.4 |
| Cc1ccc(C)c(NC(=O)Cn2cc(-c3nc(-c4ccc(Cl)cc4)no3)c(=O)c3ccc(C)nc32)c1 | i | 0.15 |
| CCCCCCCCCCCCCCCC(=O)N[C@H](CN1CCOCC1)[C@H](O)c1ccccc1 | i | -0.36 |
| Cc1ccc(-c2ccc(-n3nc(C)c(S(=O)(=O)N4CCOCC4)c3C)nn2)cc1 | i | 0.53 |
| CCN(CC)S(=O)(=O)N1CCC(C(=O)NCCCOC)CC1 | i | -0.2 |
| Cc1ccc(CNC(=O)c2ccc3c(c2)CN(S(=O)(=O)c2ccccc2)CCO3)cc1 | i | -0.55 |
| COc1ccnc2c1c(=O)n(CC(=O)Nc1ccc3c(c1)OCO3)c(=O)n2C | i | 1.1 |
| CCCNC(=O)CCn1c(N2CCCC2)nc2ccsc2c1=O | i | 0.32 |
| Cc1cc(Sc2ccc(NC(=O)Nc3ccc(Br)cc3)cc2)n2ncnc2n1 | i | 0.95 |
| Cc1cccc(-c2c3c(=O)n(C)c(=O)n(C)c3cn2-c2ccccn2)c1 | i | 0.4 |
| Cc1ccccc1OCC(=O)NCCc1csc(-c2ccccc2)n1 | i | 0.4 |
| Cc1cc(-c2nnc3sc(Cc4ccccc4)nn23)n[nH]1 | i | -0.39 |
| O=C(Cn1nc2c(SC3CCCCC3)nccn2c1=O)NC1CCCCC1 | i | 0.67 |
| O=C(Nc1ccc(-c2nnc(-c3ccccc3)o2)cc1)Nc1cc(F)ccc1F | i | -0.17 |
| Cc1cc(=O)n2[nH]c(CN(C(=O)C(C)C)c3ccc(Cl)cc3)nc2n1 | i | -1.3 |
| CCSc1nsc(NC(=O)c2ccccc2OC)n1 | i | 0.62 |
| Cc1ccc(CN2C(=O)C3CCCCC3C2=O)cc1S(=O)(=O)NCc1ccccn1 (stereo not given) | i | 0.02 |
| CNC(=O)Cc1ccc(-n2c(=O)c3ccccc3n(CC(=O)Nc3ccc(Cl)cc3F)c2=O)cc1 | i | -0.02 |
| CCCN1CCc2nc(SCc3cc(F)cc(F)c3)[nH]c(=O)c2C1 | i | -1.6 |
| CCOc1cccc(C(=O)Oc2cccc(-n3cnnn3)c2)c1 | i | 1.6 |
| O=C(N1CCN(c2ccc(F)cc2)CC1)N1c2ccccc2Sc2ccccc21 | i | 0.12 |
| Cc1nn(C)c(C)c1S(=O)(=O)N1CCOc2ccc(COCc3cccc(F)c3)cc2C1 | i | -0.47 |
| Cc1cc(OC(C)c2nc(-c3ccccn3)no2)ccc1Cl (stereo not given) | i | -0.67 |
| CCCNC(=O)Nc1ccc(-c2noc(-c3sccc3C)n2)cc1 | i | 1.4 |
| Cc1ccc(-n2nc(N3CCN(C(=O)c4cc5cc(Cl)ccc5[nH]4)CC3)ccc2=O)cc1C | i | -0.48 |
| COc1cc(Cl)c(NS(=O)(=O)c2cc(-c3cc(C(F)(F)F)on3)sc2C)c(OC)c1 | i | 1.4 |
| COc1ccc(-c2cc(N3CCN(C(=O)NC(C)(C)C)CC3)ncn2)cc1 | i | -0.53 |
| O=C(c1csc(S(=O)(=O)N2CCCCC2)c1)N1CCCC1 | i | 0.18 |
| CCOC(=O)c1ccc(NC(=O)Cn2cc(S(=O)(=O)Cc3ccccc3)c3ccccc32)cc1 | i | 0.63 |
| CCc1nnc(-c2coc(S(=O)(=O)N3CCN(CC(C)C)CC3)c2)o1 | i | -2.2 |
| O=C(O)c1ccc(NCc2nc3ccccc3n2Cc2ccccc2F)cc1 | i | -0.18 |
| O=C(Cn1nc(Cc2ccncc2)c2ccccc2c1=O)N1CC=C(c2ccccc2)CC1 | i | -0.88 |
| Cc1ccc(C2CC(=O)N(c3ccc(F)c(F)c3)C(=O)C2)cc1 | i | 0.43 |
| O=C(c1ccc2c(c1)OCCCO2)N1CCOCC1 | i | -1.1 |
| c1ccc(CNc2nn3nnnc3c3ccccc23)nc1 | i | -0.47 |
| O=C(Cn1cccc1-c1nc(-c2ccc(Cl)cc2)cs1)NCc1ccc2c(c1)OCO2 | i | -0.44 |
| Cc1nnc(NC(=O)CCc2nc(-c3ccc(C)n(C(C)C)c3=O)no2)s1 | i | -0.82 |
| O=C(C1Sc2ccccc2N(CC(=O)N2CCc3ccccc32)C1=O)N1CCCC1 (stereo not given) | i | -0.19 |
| CCOc1ccc(CN2C(=O)c3ccccc3Sc3ccc(C(=O)OC)cc32)cc1 | i | 1.2 |
| Cc1c[nH]c(=O)n(CCCN2CCN(c3ccccc3OCC(F)(F)F)CC2)c1=O | i | 1 |
| CCCn1c(=O)c2ccc(C(=O)NC(C)C)cc2n2c(=O)n(CC(=O)NC(C)CC)nc12 (stereo not given) | i | 0.05 |
| COc1ccc2[nH]c3c(=O)n(C)c(SCc4ccccc4C)nc3c2c1 | i | -1.1 |
| Fc1ccc(-c2noc3ncnc(Nc4ccc(-c5ccno5)cc4)c23)cc1 | i | 0.04 |
| CC1CCC(NC(=O)C2c3cccn3CC(=O)N2c2cccc(F)c2)CC1 (stereo not given) | i | 0.93 |
| CC1(C)C(=O)N(CC(=O)Nc2c3c(nc4ccccc24)CCCC3)c2ccccc21 | i | -1.4 |
| CCOC(=O)c1cn[nH]c1S(=O)(=O)N1CCCCC1 | i | -0.33 |
| O=C(Cn1ccc2c(SCc3ccc(F)cc3)nccc21)NCc1ccc2c(c1)OCO2 | i | 2.4 |
| CCC(=O)N1Cc2c(sc3c2CCCC3)-n2cccc2C1c1ccccc1 (stereo not given) | i | -0.15 |
| Cc1ccc(NS(=O)(=O)c2cn(C)c(C)n2)c(C)c1 | i | 0.92 |
| N=C1C(c2nc3ccccc3s2)=C(O)CN1CCCN1CCCC1=O | i | 0.03 |
| CCCCn1c(=O)c2sccc2n2c(SCC(=O)N3CCCCC3C)nnc12 (stereo not given) | i | -0.09 |
| O=C1CCCc2cc(S(=O)(=O)N3CCN(c4ncccn4)CC3)ccc2N1 | i | 1.8 |
| COc1ccc(-c2nn3c(-c4ccc5ccccc5n4)nnc3s2)cc1 | i | 1.4 |

Next part.
| smiles | Anaer choline gr | Anaer choline gr early |
| --- | --- | --- |
| Cn1c(=O)c(=O)n(C)c2cc(N3CCCCC3)c(NS(=O)(=O)c3ccc(Cl)cc3)cc21 | i | 0.64 |
| Cc1nc2nc[nH]n2c(=O)c1NC(=O)Nc1ccccc1Br | i | -0.79 |
| CCN1C(=O)c2cc(C(=O)NC3CCCCC3)nn2CC1(C)C(=O)NC1CCCC1 (stereo not given) | i | 1 |
| Fc1ccc(-c2noc(CSc3ccc(-c4ccccc4)nn3)n2)cc1 | i | -0.68 |
| CCC1Oc2cc(S(=O)(=O)N3CCCC(C(=O)N4CCC(C)CC4)C3)c(C)cc2NC1=O (stereo not given) | i | -0.42 |
| CCCCCCCCCCCCCCCCOCC(CO)OC(C)=O (stereo not given) | i | 0.83 |
| Cc1nc(-n2[nH]c(C)c(CCC(=O)N3CCN(c4ccc(F)cc4)CC3)c2=O)sc1C | i | 0.18 |
| CN(C)C(=O)CN1CCN(C(=O)c2ccc(N3CCNCC3)c(NS(=O)(=O)c3ccccc3)c2)CC1 | i | 0.53 |
| CC(C)c1ccc(NC(=O)Cn2nnc(C(=O)Nc3ccc(F)cc3)c2N)cc1 | i | 0.36 |
| CCCCCCCC/C=C\C/C=C\C/C=C\CCCC(=O)NCCO | i | 0.46 |
| COc1ccccc1N1CCN(c2ncc(S(=O)(=O)c3ccc(C(C)C)cc3)c(N)n2)CC1 | i | -1.7 |

Compound activity deposited in PubChem by ICCB-Longwood Screening Facility, Harvard Medical School.

An excerpt (hit frequency here may not be typical).
